# Anaer choline gr – inhibitors of anaerobic choline-dependent gram-negative bacterial growth; Gram-negative bacterium anaerobic choline minimal medium, absorbance growth; stronger effect = lower value; many inactives read as strong as hits in the columns shown; calls only; 55,000 compounds, 0.2% hits;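 active = growth z-score on choline under -2 at 7 or 20 h with little or no fall on glycerol, limits in tiers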;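 also: stock transfer was 300 nL into about 50 µL; the organism is E. coli; final concentration not given here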
# Anaer choline gr early – second read-out of Anaer choline gr, no call of its own (marks repeat the call); z-score; measured here: choline growth z-score, timepoint 1;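 score of optical density at 7 h as mean of two plates; lower means less growth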
# Starred values were filed as active, the others as inactive; i = inactive. Some of the compounds tested. The share of hits here may be higher or lower than overall.
SMILES,Anaer choline gr,Anaer choline gr early
COc1cc(OC)c(NC(=O)N(C)CCc2c(C)nn(C)c2C)cc1Cl,i,-1.5
CCOC(=O)c1c(NC(=O)CSc2nnc3cc(C)c4cccc(C)c4n23)sc(C)c1C,i,0.37
Cc1ccc2nc(C3=C(O)CN(c4ccc(Nc5ccccc5)cc4)C3=N)[nH]c2c1,i,1.29
O=c1[nH]c2ccc(S(=O)(=O)Nc3ccc4c(c3)OCCO4)cc2[nH]1,i,-2.02
O=C(CSc1nc(-c2ccccc2)nc2cc(=O)[nH]n12)Oc1ccccc1,i,-1.63
NC(C(=O)N[C@@H]1C(=O)N2C(C(=O)O)=C(Cl)CS[C@H]12)c1ccccc1 (stereo partly specified),i,0.72
c1ccc([B-]2(c3ccccc3)[NH2+]CCO2)cc1,i,-4.28
Cc1ccc(-c2cc(NCc3ccccc3)nc(SCC(C)C)n2)cc1,i,2.02
O=C(NCCc1ccc(Cl)cc1)C1Oc2ccccc2NC1=O (stereo unspecified),i,0.21
CCC1c2ccc(C)n2CCN1C(=O)Nc1ccccc1Cl (stereo unspecified),i,0.61
c1ccc(CCc2nnc3c4c5c(sc4ncn23)CCCC5)cc1,i,1
COc1ccc(C2C3=C(CC(C)(C)CC3=O)Nc3ccccc3N2C(=O)CC(C)C)cc1 (stereo unspecified),i,-0.49
Cc1nc(NCc2ccccc2Cl)c2onc(-c3ccc(Cl)cc3)c2n1,i,1.23
COc1ccc(S(=O)(=O)N(C)C)cc1-c1noc(C)n1,i,0.3
CN(CCCNC(=O)c1nc(CS(=O)(=O)c2ccc(Cl)cc2)no1)c1ccccc1,i,-0.92
COc1cccc(OC)c1C(=O)NCCc1csc2nc(-c3ccccc3C)nn12,i,-0.49
Cc1cccc(NS(=O)(=O)c2cc(-c3cc(C(F)(F)F)on3)sc2C)c1,i,0.71
CCN(CC)CCNc1ncnc2c1CCC2,i,-3.43
COc1ccc(OC)c(S(=O)(=O)N2CCN(c3nc(C)cc(N4CCOCC4)n3)CC2)c1,i,1.21
Cc1occc1-c1nnc(SCC(=O)N2CCCCC2C)o1 (stereo unspecified),i,1.02
COC(=O)c1ccc(C2C3=C(CC(c4ccc(OC)c(OC)c4)CC3=O)Nc3onc(C)c32)cc1 (stereo unspecified),i,0.74
CCS(=O)(=O)N1CCCC(c2n[nH]c(=O)n2-c2ccccc2)C1 (stereo unspecified),i,0.66
CC(=O)Nc1ccc2c(c1)nc1n2CCN(Cc2ccccc2)C1,i,0.15
CC(=O)N1CCCc2cc(S(=O)(=O)N3CCC(C(=O)N4CCN(c5cccc(C)c5)C(C)C4)CC3)ccc21 (stereo unspecified),i,1
CS(=O)(=O)N[C@H]1C[C@@H]2C[C@H]1N(C(=O)Cc1ccsc1)C2,i,-0.29
Cc1nnc(NC(=O)CSc2nnc(-c3cc4ccccc4o3)n2-c2ccccc2)s1,i,0.53
CC(=O)Nc1c(I)c(NC(C)=O)c(I)c(C(=O)O)c1I,i,0.75
O=S(=O)(c1ccc(-c2cnc(C3CCCC3)o2)s1)N1CCOCC1,i,0.35
Cc1cccc(NC(=O)Cn2nc(C(=O)Nc3ccccc3)ccc2=O)c1C,i,-0.59
CCCCCCCCCCCCCCCCCCc1ccc(C(=O)/C=C/C(=O)O)cc1,i,0.42
COc1ccc(-c2nc(Cn3nnc(-c4nc(-c5cc(OC)cc(OC)c5)no4)c3C)c(C)o2)cc1,i,0.45
Nc1nc2ncc(CNc3ccc(C(=O)N[C@@H](CCC(=O)O)C(=O)O)cc3)nc2c(=O)[nH]1,i,0.24
COC(=O)c1cccc(NC(=NCc2ccncc2)NC(=O)c2cccc(N(C)C)c2)c1,i,-0.2
O=C(NCc1ccc2c(c1)OCO2)c1ccc2c(=O)nc3c(-c4ccccc4)n[nH]n3c2c1,i,-2.41
Cc1nn(-c2ccc3nnc(C)n3n2)c2c1C(c1ccsc1)CC(=O)N2 (stereo unspecified),i,0.11
COc1ccc(Cl)cc1S(=O)(=O)Nc1ccc(-c2ccc(N3CCOCC3)nn2)cc1,i,-0.28
CC(=O)N1CCCc2cc(S(=O)(=O)N3CCC(C(=O)N4CCN(c5ccc(F)cc5)CC4)CC3)ccc21,i,0.04
CCS(=O)(=O)NCc1c(C)nc2sc(C)nn12,i,-1.01
COc1nc(C)ccc1-c1noc(-c2ccc(C(C)(C)C)cc2)n1,i,0.3
COCCn1c(CNC(=O)c2ccc(Cl)cc2)nc2cccnc21,i,-0.47
O=C(NCc1ccccc1)C1CCCN(c2nc3ncccc3n3cccc23)C1 (stereo unspecified),i,-0.22
Cc1c(NC(=O)CCCc2nc(-c3ccncc3)no2)c(=O)n(-c2ccccc2)n1C,i,-1.05
Cc1c2c(=O)n(-c3ccccc3)[nH]c2cc(=O)n1Cc1cccnc1,i,3.09
CCC(C)(C)NC(=O)C1CCN(S(=O)(=O)c2c(C)[nH]c(C)c2C(=O)N2CCCCC2)CC1,i,0.94
CCOC(=O)CNC(=O)CSc1nnc(Cc2cccn2C)n1-c1ccc(C)cc1,i,1.25
COC(=O)c1cc(S(=O)(=O)N2CCCC2C(=O)NCc2ccccn2)cn1C (stereo unspecified),i,-1.53
CCN1C(=O)C2(c3ccccc31)c1c(oc3ccc(C)cc3c1=O)C(=O)N2CC1CCCO1 (stereo unspecified),i,0
CCCn1nnc(NCc2ccc(-c3ccc(Cl)cc3Cl)o2)n1,i,0.5
COc1ccc2[nH]cc(CCNC(=O)CN3C(=O)CSc4cccn4-c4ccccc43)c2c1,i,0.48
CCC(C(=O)Nc1c(C)nc2sccn2c1=O)c1ccccc1 (stereo unspecified),i,-1.3
CCCCCCn1c(=O)c(C2=NS(=O)(=O)c3ccccc3N2)c(O)c2ccccc21,i,0.83
O=C(CCCCc1ccccc1)C(F)(F)C(F)(F)F,i,0.75
O=C(CC1CCN(C(=O)NC2CCCCC2)CC1)N1CCOCC1,i,-0.4
CC(C)CCNC(=O)CN(C)S(=O)(=O)c1ccc2c(c1)c(=O)n(C)c(=O)n2C,i,0.4
CCc1nc2sc(C)nn2c1S(=O)(=O)N1CCOCC1,i,-0.36
CCCNCc1cc(=O)n2[nH]c(-c3ccccc3)nc2n1,i,0.05
COc1c(C)cnc2c1c(=O)n(CC(=O)N1CCC(Cc3ccccc3)CC1)c(=O)n2C,i,0.42
Cc1sc(-c2nc(-c3ccccc3)no2)cc1S(=O)(=O)N1CCc2ccccc2C1,i,0.27
NC1=NC(=O)C(C2(O)C(=O)Nc3ccc(F)cc32)S1 (stereo unspecified),i,-1.91
O=C(Cn1cnc2c(sc3ncccc32)c1=O)NCc1ccc(Cl)cc1,i,0.11

# The results go on.
SMILES,Anaer choline gr,Anaer choline gr early
CCCN1CCN(C(=O)CCn2cnc3oc(C)c(C)c3c2=O)CC1,i,-0.68
O=C(Cn1cnc2c(sc3ncccc32)c1=O)N1CCN(c2ccccc2F)CC1,i,-0.14
Cc1cc(=O)n2nc(-c3ccc(Cl)cc3)nc2n1CC(=O)NC(C)C,i,1
O=C(c1ccc(Cl)s1)N1CCN(c2ncnc3c2CCC3)CC1,i,0.28
Cc1ccc(-c2cc(N3CCOCC3)nc(SCc3ccc(Cl)cc3)n2)cc1,i,0.35
COc1cccc(-c2noc(C3CCCN(S(=O)(=O)c4ccc(Br)cc4)C3)n2)c1 (stereo unspecified),i,1.66
CC(C)Cn1c(=O)c2sccc2n2c(CCC(=O)N(C)Cc3ccco3)nnc12,i,-0.56
CCCCC[C@H](O)/C=C/[C@@H]1[C@H]2C/C=C\CCCC(=O)O[C@@H]1C[C@@H]2O,i,-0.95
CCCN1CCN(C(=O)CS(=O)Cc2cnn(-c3ccccc3)c2-n2cccc2)CC1 (stereo unspecified),i,1.11
COc1ccccc1-c1nnc2sc(-c3ccc4ccccc4n3)nn12,i,0.46
CC(C)NC(=O)N1Cc2c(sc3c2CCCC3)-n2cccc2C1C (stereo unspecified),i,0.43
COC(=O)c1ccccc1NC(=O)C1=Cc2sc3c(c2CS1)CCCC3,i,-2.1
CCOC(=O)c1csc(NC(=O)c2ccccc2Cl)n1,i,-0.3
O=C1CC(c2ccc(F)cc2)c2c(-c3ccccc3)nn(-c3ccccc3)c2N1 (stereo unspecified),i,-0.32
Cc1ccc(Cl)cc1NC(=O)CN(C)S(=O)(=O)c1c[nH]c(C(=O)N2CCCC2)c1,i,0.46
Cc1ccc(C(=O)N2CCCc3cc(C(N)=O)ccc32)cc1,i,0.37
COc1ccccc1-n1ccnc1SCC(=O)NCC1CCCO1 (stereo unspecified),i,0.21
CCCN1CCN(c2ncnc3sc(C(=O)N4CCCC4)c(C)c23)CC1,i,0.33
Cc1cc(C)c(S(=O)(=O)Nc2ccc(N3CCN(C)CC3)c(C(=O)O)c2)c(C)c1,i,0.98
Cc1ccc(Sc2ccc(=O)n(-c3ccc(C(=O)N4CCN(c5ccccn5)CC4)cc3)n2)cc1,i,-0.59
Cn1cc(S(=O)(=O)N2CCCCC2)cc1C(=O)Nc1cccc(F)c1,i,0.32
Cc1c(C(=O)N2CCN(c3ccccc3)CC2)oc2cc3sc(N(C)C)nc3cc12,i,0.35
Cc1cc(C(=O)N2CC=C(c3ccccc3)CC2)n[nH]1,i,0.9
CCCNC(=O)CSc1nnc2n(CCC(=O)NCC(C)C)c(=O)c3ccccc3n12,i,-0.04
CCC(C)NS(=O)(=O)c1ccc2c(c1)N(C(C)=O)CCS2 (stereo unspecified),i,0
COc1ccc(CNC(=O)c2ccc3cnn(Cc4cccc(Cl)c4)c3c2)c(OC)c1,i,0.58
CC(C)n1c(N2CCN(C(=O)CC3CCCC3)CC2)cc(=O)n(C(C)C)c1=O,i,0.45
CCn1nc(C)c2c1c(=O)n(Cc1ccccc1)c(=O)n2Cc1cc(C)ccc1C,i,0.04
CCC(=O)n1nc(-c2ccc(C)c(C)c2)nc1N,i,-0.01
Cc1ccc(-c2ccc(-n3nc(C)c(S(=O)(=O)Nc4ccc5c(c4)OCCO5)c3C)nn2)cc1,i,-0.33

# Ordered by number of heavy atoms (descending): 13 of the compounds above.
SMILES,Anaer choline gr,Anaer choline gr early
Cc1ccc(Sc2ccc(=O)n(-c3ccc(C(=O)N4CCN(c5ccccn5)CC4)cc3)n2)cc1,i,-0.59
Cc1ccc(-c2ccc(-n3nc(C)c(S(=O)(=O)Nc4ccc5c(c4)OCCO5)c3C)nn2)cc1,i,-0.33
CCCNC(=O)CSc1nnc2n(CCC(=O)NCC(C)C)c(=O)c3ccccc3n12,i,-0.04
CCn1nc(C)c2c1c(=O)n(Cc1ccccc1)c(=O)n2Cc1cc(C)ccc1C,i,0.04
O=C1CC(c2ccc(F)cc2)c2c(-c3ccccc3)nn(-c3ccccc3)c2N1 (stereo unspecified),i,-0.32
CC(C)n1c(N2CCN(C(=O)CC3CCCC3)CC2)cc(=O)n(C(C)C)c1=O,i,0.45
COC(=O)c1ccccc1NC(=O)C1=Cc2sc3c(c2CS1)CCCC3,i,-2.1
Cn1cc(S(=O)(=O)N2CCCCC2)cc1C(=O)Nc1cccc(F)c1,i,0.32
CC(C)NC(=O)N1Cc2c(sc3c2CCCC3)-n2cccc2C1C (stereo unspecified),i,0.43
Cc1ccc(C(=O)N2CCCc3cc(C(N)=O)ccc32)cc1,i,0.37
CCC(C)NS(=O)(=O)c1ccc2c(c1)N(C(C)=O)CCS2 (stereo unspecified),i,0
CCOC(=O)c1csc(NC(=O)c2ccccc2Cl)n1,i,-0.3
CCC(=O)n1nc(-c2ccc(C)c(C)c2)nc1N,i,-0.01

# Going on with the list:
SMILES,Anaer choline gr,Anaer choline gr early
Cc1cc(N(C)C)n2nc(-c3ccc(Cl)cc3)c(C)c2n1,i,0.68
O=C(CN1C(=O)c2ccccc2C1=O)NCc1noc(-c2ccc(F)cc2)n1,i,-0.31
CCOc1ccc(-c2nc(-c3oc4ccc(C)cc4c3C)no2)cc1,i,0.13
COc1ccc(-c2cc3n(n2)CCCN(C(=O)NCC2CCCO2)C3)cc1 (stereo unspecified),i,-0.01
O=C(NCCC1CCN(C(=O)c2ccc(F)cc2)CC1)C1CC1,i,-0.34
O=C(NCc1ccc2c(c1)OCO2)c1ccc(CN2CC(=O)N3CCCCC3C2=O)cc1 (stereo unspecified),i,-0.16
O=C(Nc1ccc2c(c1)OCCO2)c1cccc(Nc2ccnc(-c3ccccc3)n2)c1,i,1.55
CCCCOc1ccc(CN2CCCC2c2c(C)noc2C)cc1 (stereo unspecified),i,-0.59
CC(C)NC(=O)C1CCc2nc(N3CCCCC3)ncc2C1 (stereo unspecified),i,1.29
c1ccc(SCc2nnc3sc(Cc4ccc5c(c4)OCCO5)nn23)cc1,i,1.43
O=C1c2ccccc2Sc2cc(-c3noc(COc4ccccc4)n3)ccc2N1C1CC1,i,1.88
CCSc1nc2ccc(NS(=O)(=O)c3c(C)n[nH]c3C)cc2s1,i,-0.95
CC1(C)SC2C(N=CN3CCCCCC3)C(=O)N2C1C(=O)O (stereo unspecified),i,0.66
Cc1ccc(-c2cc(Nc3ccccc3C)nc(C)n2)cc1,i,-1.7
O=C(CCC(=O)N1CCc2cc(S(=O)(=O)NCC3CCCO3)ccc21)N1CCCCC1 (stereo unspecified),i,-1.79
Cc1ccc(C)c(CN2CCC3(CC2)N=C(c2ccc(Br)cc2)C(=O)N3)c1,i,0.59
COCCn1nnc2cc(S(=O)(=O)N3CCCCC3C(=O)Nc3ccc(Cl)cc3)ccc21 (stereo unspecified),i,-0.09
CCC(=O)NC(C)c1nc(-c2ccccc2Cl)no1 (stereo unspecified),i,0.35
CCN(CC)c1nc2ccsc2c(=O)n1CCC(=O)N1CCN(c2ccccn2)CC1,i,0.26
CC(C)c1csc(NC(=O)COc2ccccc2-c2nc(C(C)C)no2)n1,i,0.13
O=C(Nc1ccccc1)Nc1nc(CC(=O)N2CCCc3ccccc32)cs1,i,-0.85
